# NS1 function inh: blocks influenza NS1 protein function | S. cerevisiae slowed by influenza A NS1, growth recovery by OD600 | Potency, µM (titrated, usually from 46.1 µM), without a hit: at the highest dose activity, positive = more growth | actives 0.4% (n = 270,000) | AID 2326; active means well fitted rising curve with a large enough effect; inconclusive means small, poorly fitted or top-dose-only effect; inactive means no such curve, though single readings can be large or run the other way; also: nearly all actives have a fitted effect of over 50% in size
#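 Recovery from NS1-induced slow growth read by OD600 in budding yeast switched to galactose assay medium (pH 6.0, -URA) at 1:100 dilution. Compound 23 nl per well; the matching strain lacking NS1 serves as control.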
# LASV entry inh: inhibitors of Lassa virus binding or cell entry; actives 1.2% (n = 300,000); Potency, µM (top dose mostly 37.9 µM), for inactives: at the top dose activity change, negative = inhibition, hits mostly inhibitors; Lassa virus pseudotype entry inhibition, cell reporter; control for the full effect not named in the record; AID 540256; active means well fitted inhibition curve with a large enough effect; inconclusive means small, poorly fitted or top-dose-only effect, or effect the other way; inactive means flat fitted curve, though single readings scatter; tested in HEK293 cells; also: % is scaled to controls: 0 for no effect and ±100 for the full control effect; nearly all actives have a fitted effect of over 50% in size; luciferase read-out
# SARS PLP yeast: SARS-CoV PLP inhibition in yeast; actives 0.19% (n = 330,000); S. cerevisiae expressing SARS-CoV PLpro, growth rescue; control for the full effect not named in the record; Potency, µM (highest dose often 32.9 µM), without a hit: top-dose activity, positive = growth rescue; active means well fitted rising curve with a large enough effect; inconclusive means small, poorly fitted or top-dose-only effect; inactive means no such curve, though single readings can be large or run the other way; also: 0% is about no effect; nearly all actives have a fitted effect of over 55% in size; growth read by luminescence after 48 h
# Cruzain inh noDet: inhibitors of Trypanosoma cruzi cruzain without detergent; P25779; actives 2.3% (n = 200,000); purified cruzain, Z-FR-AMC fluorescence, no detergent; AID 1476; Potency, µM, inactives show max response, negative = inhibition, hits mostly inhibitors;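 also: plate controls were enzyme without inhibitor for no effect and buffer without enzyme for full effect; nearly all actives have a fitted effect of over 40% in size; top concentration of the series not given in the record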
# Target sequence (P25779 123-467 limits assumed): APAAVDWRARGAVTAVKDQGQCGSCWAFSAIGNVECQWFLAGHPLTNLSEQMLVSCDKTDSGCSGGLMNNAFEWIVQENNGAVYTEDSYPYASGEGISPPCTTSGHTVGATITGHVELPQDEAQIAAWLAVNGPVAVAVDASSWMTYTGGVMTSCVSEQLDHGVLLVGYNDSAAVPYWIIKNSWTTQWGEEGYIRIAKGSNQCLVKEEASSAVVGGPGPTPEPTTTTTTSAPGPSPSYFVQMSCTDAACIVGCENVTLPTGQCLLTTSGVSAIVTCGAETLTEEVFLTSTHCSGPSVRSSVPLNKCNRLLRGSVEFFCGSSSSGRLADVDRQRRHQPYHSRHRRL
#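 Detergent-free condition (0.00005% Triton X-100) in acetate buffer pH 5.5 with DTT. 1.5 nM enzyme and compound were pre-mixed 15 min, then 2 uM Z-FR-AMC substrate added; reaction progress from fluorescence change between first and third reads (60 s).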
# Marburg entry inh: blocks Marburg virus binding to or entry into cells; Marburg virus pseudotyped entry inhibition, cell reporter; control for the full effect not named in the record; about a third of the inactives were read at about 46 µM; Potency, µM (series often up to 37.8 µM), for inactives: top-dose activity change, negative = inhibition, actives largely listed as inhibitors; actives 1.8% (n = 300,000); AID 540276; active = well fitted inhibition curve with a large enough effect; inconclusive = small, poorly fitted or top-dose-only effect, or effect the other way; inactive = flat fitted curve, though single readings scatter; tested in HEK293 cells; about a fifth of its hits are not listed in these tables; also: % is scaled to controls: 0 for no effect and ±100 for the full control effect; luciferase read-out
# 2A StopGo: FMDV 2A StopGo reporter, luciferase signal | human cells with a luciferase reporter of 2A StopGo recoding; control for the full effect not named in the record | actives 1.2% (n = 410,000) | Potency, µM (titrated, usually from 57.9 µM), inactives show at the top dose signal change, negative = less light; active = well fitted falling curve with a large enough effect; inconclusive = small, poorly fitted or top-dose-only effect; inactive = no such curve, though single readings can be large or run the other way; tested in HEK293T cells; also: % is scaled to controls: 0 for no effect and ±100 for the full control effect; nearly all actives have a fitted effect of over 45% in size; luciferase light after 4 h
# Cruzain inh Det: blocks cruzain activity in presence of Triton detergent; P25779; actives 0.43% (n = 200,000); AID 1478; Potency, µM, for inactives: max response, negative = inhibition, usual class: inhibitors; purified cruzain, Z-FR-AMC fluorescence, 0.01% Triton;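 also: plate controls were neutral wells for no effect and buffer without enzyme for full effect; nearly all actives have a fitted effect of over 40% in size; top concentration of the series not given in the record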
#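 15 min RT preincubation of 1.5 nM cruzain with compound, then 2 uM Z-FR-AMC added; kinetic AMC fluorescence, 60 s delta. Triton X-100 0.01%, pH 5.5.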
# RE007 growth inh: less growth of the S. pombe RE007 Vpr strain; S. pombe RE007 Vpr strain, BacTiter-Glo ATP luminescence, 24 h; control for the full effect not named in the record; Potency, µM (doses to about 92.2 µM), for the others: top-dose activity change, negative = less growth; actives 0.21% (n = 360,000); active = well fitted falling curve with a large enough effect; inconclusive = small, poorly fitted or top-dose-only effect; inactive = no such curve, though single readings can be large or run the other way;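 also: % is scaled to controls: 0 for no effect and ±100 for the full control effect; nearly all actives have a fitted effect of over 50% in size; the assay follows cell death caused by Vpr and the record does not say whether a fall means rescue or toxicity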
#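 Fission yeast strain RE007, carrying one chromosomally integrated HIV-1 vpr copy, was seeded at OD 0.01 in PMG+AL medium with 23 nL pinned compound. After 24 h at 30 °C and 99% humidity, viability was read by BacTiter-Glo luminescence.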
# An asterisk follows results filed as active; ? = inconclusive; / = not tested or not shown; & = joins results of further samples; [ ] = remark or other dose. Unless noted, calls follow the shape of the dose curve; as a rule, active = well fitted curve in the direction sought with a large enough effect; inconclusive = small, poorly fitted or top-dose-only effect, or another doubt; inactive = no such curve, though single readings can be large; an effect the other way counts as inactive or inconclusive. Potency is read from the fitted curve at half-maximal effect.
# Values run as follows: RE007 growth inh | LASV entry inh | 2A StopGo | NS1 function inh | Cruzain inh noDet | SARS PLP yeast | Cruzain inh Det | Marburg entry inh
> COC(=O)C1=C(C)OC(N)=C(C#N)C1c1cc(OC)c(OCC(N)=O)cc1Cl (stereo not drawn)
 : 3% | 7% | -13% | 2% | -6% | 6% | 3.8% | -1%
> Cc1ccccc1CC(=O)N1CCCc2ccccc21
 : 0% | 15%[46.1 µM] | 32%[activator] | -1% | / | -3% | / | 20%[46.1 µM]
> COc1cc(OC)cc(C(=O)Nc2ccc(NC(=O)c3ccco3)c(C)c2)c1
 : -15% | -6%[46.1 µM] | 0% | 3% | / | -43% | / | ?
> O=C(CN(C(=O)CNC(=O)c1ccco1)c1cccc(F)c1)NC1CCCCC1
 : 2% | 19%[46.1 µM] | 0% | 1% | / | -1% | / | ?
> CCCCC(=O)Nc1ccc(C(=O)NNC(=O)c2cccs2)cc1
 : -23% | ? | 1% | 13% | -4% | 6% | 3.0% | 0%
> COCCCn1c(N)c(C(=O)NCc2ccco2)c2nc3ccccc3nc21
 : 5% | -1%[46.1 µM] | -27% | -1% | / | 4% | / | -25%[46.1 µM]
> COc1cccc2cc(S(=O)(=O)c3ccc(C)cc3)/c(=N/NS(=O)(=O)c3ccc(C)cc3)oc12
 : 8% | -11%[46.1 µM] | 16% | / | / | 2% | / | -12%[46.1 µM]
> CN(C)c1nc(C(=O)NN)nc(N(C)C)n1
 : 9% | 14% | / | 1% | 0% | -6% | 5.9% | -5%
> CCN(CC)S(=O)(=O)c1ccc(NS(=O)(=O)c2cccc(C)c2)cc1
 : -4% | -9% | 63%[activator] | -13% | -7% | 11% | -1.2% | 6%
> O=C(CN1CCN(C/C=C/c2ccccc2)CC1)Nc1ccc(F)cc1F
 : -1% | 15% | -16% | / | / | -2% | / | 6%

# 4 structures from above, arranged by count of non-hydrogen atoms, high to low.
# Values run as follows: RE007 growth inh | LASV entry inh | 2A StopGo | NS1 function inh | Cruzain inh noDet | SARS PLP yeast | Cruzain inh Det | Marburg entry inh
> O=C(CN(C(=O)CNC(=O)c1ccco1)c1cccc(F)c1)NC1CCCCC1
 : 2% | 19%[46.1 µM] | 0% | 1% | / | -1% | / | ?
> COc1cc(OC)cc(C(=O)Nc2ccc(NC(=O)c3ccco3)c(C)c2)c1
 : -15% | -6%[46.1 µM] | 0% | 3% | / | -43% | / | ?
> CCCCC(=O)Nc1ccc(C(=O)NNC(=O)c2cccs2)cc1
 : -23% | ? | 1% | 13% | -4% | 6% | 3.0% | 0%
> Cc1ccccc1CC(=O)N1CCCc2ccccc21
 : 0% | 15%[46.1 µM] | 32%[activator] | -1% | / | -3% | / | 20%[46.1 µM]

# Additional entries
# Values run as follows: RE007 growth inh | LASV entry inh | 2A StopGo | NS1 function inh | Cruzain inh noDet | SARS PLP yeast | Cruzain inh Det | Marburg entry inh
> CN(Cc1ccccc1)C(=O)c1ccc2c(c1)N(Cc1ccc(Cl)cc1)C(=O)c1ccccc1S2=O (stereo not drawn)
 : / | 25%[46.1 µM] | 0% | / | -3% | / | 1.0% | 0%[46.1 µM]
> CCCCN(C(=O)CN1C(=O)C2CCCCC2C1=O)c1c(N)n(Cc2ccccc2)c(=O)[nH]c1=O (stereo not drawn)
 : 8% | -12% | -3% | / | / | / | / | 8%
> Cc1ccc(C(C)C)cc1S(=O)(=O)Nc1cccnc1
 : -18% | -13% | 121%[activator] | 7% | / | 1% | / | 10%
> COc1ccc(/C=C(\C#N)C(=O)OCCNC(=O)c2ccncc2)cc1
 : 1% | ? | -13% | -3% | / | -1% | / | 16%[46.1 µM]
> CC(C)(C)c1ccc(-c2nc(-c3ccncc3)no2)cc1
 : ? | ? | ? | -17% | ? | -21% | -7.2% | ?
> CCN(CC)CCNC(=O)c1ccc(NC2=NC3CS(=O)(=O)CC3S2)cc1 (stereo not drawn)
 : 5% | / | -3% | 3% | -3% | 12% | 3.4% | /
> CCOC(=O)c1ccc(N=Cc2c(O)n(-c3ccccc3F)c(=S)[nH]c2=O)cc1
 : 2% | 0% | 1% | 15% | -5% | -2% | -1.9% | ?
> Cc1nnc2ccc(-c3cccc(NC(=O)c4ccc(Br)o4)c3)nn12
 : -9% | ? | -14% | / | / | -6% | / | ?
> Cc1ccc(S(=O)(=O)c2ccsc2NC(=O)c2ccccc2)cc1
 : 10% | 17%[46.1 µM] | 0% | / | / | / | / | -17%
> COc1ccc(C(=O)c2ccc(OC)c(OC)c2)cc1
 : -7% | -6% | 1% | -22% | 0% | 6% | -0.3% | -9%
> Cc1cccn2c(=O)c3cc(C#N)c(=O)n(CCCN4CCOCC4)c3nc12
 : -15% | -4% | -6% | -9% | ? | 1% | ? | -2%
> COc1cc(=O)n(C)c2ccccc12
 : 1% | 9% | / | -1% | 2% | 2% | -1.5% | 10%
> NS(=O)(=O)c1cccc(NC(=O)COC(=O)Cn2cnc3ccccc32)c1
 : 2% | / | 8% | 2% | / | 1% | / | /
> CCc1ccc(-c2cc(C)no2)cc1S(=O)(=O)NC(C)Cc1ccco1 (stereo not drawn)
 : -5% | / | 22% | -3% | / | 12% | / | /
> C[C@@H](CO)NC(=O)c1ccc2c3n(nc2c1)-c1ccccc1CO3
 : -17% | / | -44% | -6% | / | -4% | / | /
> CC1CN(CCCCOc2ccc(Cl)c3ccccc23)CC(C)O1 (stereo not drawn)
 : -10% | ? | -27% | -19% | / | 3% | / | ?
> O=C(COc1ccccc1C(=O)O)Nc1ccc(SC(F)F)cc1
 : -7% | -10%[46.1 µM] | -6% | / | / | 1% | / | ?
> COC(=O)c1ccc(CN2C(=O)C3CCCCC3C2=O)o1 (stereo not drawn)
 : -19% | / | 3% | -50% | / | -6% | / | /
> Cc1ccc(NC(=O)CN(C)CC(=O)NC2CCCc3ccccc32)cc1 (stereo not drawn)
 : 10% | ? | -5% | -4% | / | 1% | / | ?
> COc1ccc(NC(=O)CN2C(=O)COc3ccc(S(=O)(=O)N4CCOCC4)cc32)c(OC)c1
 : -9% | / | -15% | -4% | / | ? | / | /
> C/C=C/c1ccc(OCC(=O)OCC2=C(C(=O)OCC)C(C)NC(=O)N2)c(OC)c1 (stereo not drawn)
 : 7% | -11% | -16% | / | / | -1% | / | 0%
> COc1ccc(CC(=O)N2CCOCC2)cc1
 : 7% | 13% | 6% | 1% | -9% | 5% | 0.9% | 12%
> CC1CC(C)(C)NC(=S)O1 (stereo not drawn)
 : -15% | 20% | -10%&0% | 1%&6% | / | -2%&-1% | / | 9%[46.1 µM]
> NC(=O)CC(NC(=O)Cc1ccc(Br)cc1)c1ccc(N2CCN(c3ccccc3)CC2)c([N+](=O)[O-])c1 (stereo not drawn)
 : -9% | / | ? | 4% | / | 1% | / | /
> Cc1ccc(-n2nnnc2-c2ccccc2)cc1
 : -14% | ? | 2% | / | / | -2% | / | ?
> O=C(c1ccco1)c1cc2c(ccc3ccccc32)oc1=O
 : 4% | 6% | 21% | -4% | -4% | -5% | 3.8% | ?
> Cc1sc2c(c1C)C(=O)/C(=C\Nc1ccccn1)S(=O)(=O)N2C
 : 2% | 17% | -1% | -1% | / | 1% | / | 13%
> CCC(C(=O)NCCc1ccc(OC)c(OC)c1)n1nc(C)n2c(cc3occc32)c1=O (stereo not drawn)
 : 6% | / | 5% | 9% | / | 6% | / | /
> COC(=O)c1ccc2nc(C(F)(F)F)[nH]c2c1
 : -6% | -7% | -4% | -14% | -8% | -7% | 7.3% | 3%
> CCC(Cc1ccccc1)NC(=O)Cn1ncc2c3ccccc3n(Cc3ccccc3)c2c1=O (stereo not drawn)
 : / | ? | 0% | / | 7% | / | -1.9% | 2%[46.1 µM]
> COCCNC(=O)CCN1N=C(c2ccccc2)CCC1=O
 : 3% | ? | -16% | 2% | / | -2% | / | -12%[46.1 µM]
> CCCc1cc(=O)oc2cc(C)cc(OCC(=O)NC3CCN(Cc4ccccc4)CC3)c12
 : -5% | / | ? | -2% | / | 7% | / | /
> COc1ccc(C(=O)NC(=S)N2CCN(c3ccccc3OC)CC2)cc1OC
 : 4% | / | -16% | -2% | / | -7% | / | /
> O=C(NNC(=O)c1ccc(Cl)c(S(=O)(=O)Nc2ccc(Cl)cc2)c1)c1ccc(=O)[nH]c1
 : -3% | 4% | 2% | / | / | 6% | / | 0%
> COc1cc(NC(=O)COC(=O)CNC(=O)c2cc(C)cc(C)c2)c(C)cc1[N+](=O)[O-]
 : -6% | -2% | -4% | -23% | -20% | 3% | ? | 25%
> COc1cc(OC)c(NC(=O)c2nc(-c3ccncc3)no2)cc1Cl
 : / | -7%[46.1 µM] | -10% | / | -6% | / | -1.4% | /
> Cc1ccc(Cl)cc1NC(=O)c1cc2ccccc2cc1O
 : 4% | / | ? | -1% | / | -5% | / | /
> COc1ccc(C)cc1NC(=O)c1cc2c(s1)-c1ccccc1SC2
 : / | 26%[46.1 µM] | -2% | / | 16µM* | / | -6.3% | 4%[46.1 µM]
> Cc1ccccc1NC(=O)C1Cc2ccccc2CN1C(=O)OCc1ccccc1 (stereo not drawn)
 : 1% | 2% | -3% | -13% | -16% | 6% | -4.9% | ?
> Cc1c(CNCc2ccc(Cl)cc2)c(C(=O)O)c(C)n1Cc1ccc(F)cc1
 : / | 0%[46.1 µM] | -16% | / | 7% | / | -3.3% | 4%[46.1 µM]
> O=C(NC1CCCCC1)C(c1ccccn1)N(C(=O)c1csnn1)c1ccccc1F (stereo not drawn)
 : 4% | -18% | 12% | 4% | / | -5% | / | -17%[46.1 µM]
> COc1ccc(NC(=O)CSc2nnc(-c3cccs3)n2C)cc1OC
 : 6% | -2% | 8% | 5% | 3% | 3% | 3.6% | 22%
> NC(=O)c1cc(S(=O)(=O)NCc2cccc(Br)c2)cs1
 : 1% | 7%[46.1 µM] | 18%&36% | -5% | -1% | -11% | 2.2% | /
> Cc1cc(C)n2nc(SCCC(=O)NCCc3ccccc3)nc2n1
 : 2% | -1% | 0% | -9% | -1% | 8% | 4.4% | ?
> Cc1cc(NC(=O)C2CCCCC2)nc2c1c(=O)oc1ccccc12
 : 24% | 13% | 10% | -40% | -6% | -1% | -0.5% | ?
